# Screens: PubChem BioAssay, several laboratories
# MT1-MMP act inh: inhibitors of human MT1-MMP activation; P50281; HT1080 RFP-PRO-GFP cells, GFP/RFP ratio fluorescence, overnight; percent of plate control window, DMSO zero; GFP/RFP ratio change, % at 20 µM; 0.061% of 360,000 active;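 active = GFP/RFP ratio change of at least 30% with cell ATP level not reduced by more than half and red fluorescence within 50% of control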; note: strong numbers were not always called active
#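 Assay system: RFP-PRO-GFP reporter HT1080 cells; read-out basis: GFP/RFP fluorescence ratio; benchmarks: DMSO wells and RFP-L50D-GFP cells; doses: 20 µM single dose, 1% DMSO; schedule: overnight cell settling, then overnight compound exposure, 37 °C, 5% CO2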
# HIV Env fusion: inhibitors of HIV Env-mediated cell fusion; HeLa-JRFL Env/CEM21 cell fusion, luciferase; 1.1% of 360,000 active; inhibition, % at 12.3 µM;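 active = mean replicate inhibition score of at least 50 and every replicate individually at or above 50; inconclusive = only one of the two criteria met; inactive = mean below 50 and not all replicates reaching 50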;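 note: 0% = plate neutral controls and 100% = maraviroc near 300 nM; one replicate is shown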
# CSC inhib: cancer stem cell inhibition. cancer stem cell-like cells viability, luminescence. 1.1% of 300,000 active. inhibition, % at 7.5 µM;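 active = mean at 75% or more and at least half the replicates too; inconclusive = mean and replicates disagree; tested in HMLE shEcad cells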;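 note: 0% = median of negative and 100% = median of positive control wells; the first replicate is given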
# eIF4H inh: inhibitors of RNA binding by human eIF4H; inhibition, % at 35 µM; AID 2012; Q15056; eIF4H fluorescence polarization binding assay; 0.94% of 290,000 active;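 active = 50% or more with normal probe brightness, or confirmed in later tests; inconclusive = above 50% with abnormal brightness, or retests that disagree; inactive = below 50% or failed in later tests; about a fifth of its hits are not listed in these tables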;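 note: calls also rest on retests at 20 µM and on dose response follow-up; 0% = protein and probe with vehicle and 100% = probe without protein; strong numbers were not always called active; many hits fall short of the cut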
# Rce1 inh: blocks yeast Ras-converting enzyme; 0.27% of 290,000 active; Q03530; yeast membranes, quenched prenylated peptide cleavage fluorescence; calls only; AID 2563;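 active = fall in fluorescence gain of 50% or more versus controls, with final raw signal at or below 3038400; inconclusive = same 50% fall but final raw signal above 3038400; inactive = fall in fluorescence gain under 50%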;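 note: plate controls were neutral control wells for no effect and wells lacking membranes for full effect; tested at 10 µM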
# Target sequence (Q03530 whole entry, looked up): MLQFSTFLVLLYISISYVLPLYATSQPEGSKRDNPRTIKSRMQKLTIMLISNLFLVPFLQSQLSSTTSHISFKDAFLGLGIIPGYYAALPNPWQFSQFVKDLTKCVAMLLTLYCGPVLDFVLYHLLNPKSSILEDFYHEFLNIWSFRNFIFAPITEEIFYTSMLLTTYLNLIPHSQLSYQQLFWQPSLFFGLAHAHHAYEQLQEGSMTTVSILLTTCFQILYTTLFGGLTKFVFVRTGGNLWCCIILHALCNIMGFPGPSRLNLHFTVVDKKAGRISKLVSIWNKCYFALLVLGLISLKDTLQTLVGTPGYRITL
# UUG fidelity: yeast start codon fidelity modulation. activity score, % at 18.7 µM. S. cerevisiae UUG-firefly luciferase reporter, luminescence/redox ratio. 0.13% of 350,000 active;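 active = replicate mean at a twofold rise or more, about +100% in these data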;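 note: firefly luciferase made from a UUG start codon reports start codon fidelity; reporter light over untreated wells divided by growth signal over untreated wells; some hits fall short of that in this replicate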
# PABP polyA inh: blocks human PABP binding to poly(A) RNA; P11940; fluorescence polarization; inhibition, % at 35 µM; 1% of 290,000 active;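 active = 50% or more with normal probe brightness, or confirmed in later tests; inconclusive = above 50% with abnormal brightness, or retests that disagree; inactive = below 50% or failed in later tests; about a fifth of its hits are not listed in these tables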;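 note: calls also rest on retests at 20 µM and on dose response follow-up; controls were probe without protein and protein plus probe with vehicle; some compounds called inactive have numbers as strong as hits; many hits fall short of the cut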
# Target sequence (P11940 whole entry, looked up): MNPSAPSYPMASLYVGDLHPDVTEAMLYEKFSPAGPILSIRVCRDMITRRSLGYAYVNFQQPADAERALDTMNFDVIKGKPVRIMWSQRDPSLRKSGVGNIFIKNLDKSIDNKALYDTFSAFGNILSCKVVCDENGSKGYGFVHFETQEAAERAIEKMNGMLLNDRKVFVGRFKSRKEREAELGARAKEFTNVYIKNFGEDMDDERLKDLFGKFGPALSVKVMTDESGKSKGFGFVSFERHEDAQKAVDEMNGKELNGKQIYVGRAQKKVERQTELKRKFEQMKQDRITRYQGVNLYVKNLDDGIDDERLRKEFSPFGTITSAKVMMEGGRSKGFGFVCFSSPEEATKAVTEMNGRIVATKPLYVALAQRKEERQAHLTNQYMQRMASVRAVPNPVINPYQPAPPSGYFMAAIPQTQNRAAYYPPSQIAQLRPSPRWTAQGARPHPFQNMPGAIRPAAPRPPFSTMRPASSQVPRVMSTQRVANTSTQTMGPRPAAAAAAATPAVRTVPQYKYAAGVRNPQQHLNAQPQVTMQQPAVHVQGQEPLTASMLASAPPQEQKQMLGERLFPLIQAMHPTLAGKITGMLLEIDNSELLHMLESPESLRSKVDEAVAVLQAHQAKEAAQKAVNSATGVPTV
# eIF4H inh retest: second read-out of eIF4H inh, no call of its own (marks repeat the call); inhibition, %; compound at 20 µM; confirmation average;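 mean of two retest wells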
# PABP polyA inh retest: further read-out of PABP polyA inh, marked with its call; inhibition, %; compound at 20 µM; confirmation repeats;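 mean of two retest wells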
# MT1-MMP act inh RFP: further read-out of MT1-MMP act inh, marked with its call; RFP signal change, %; measured here: RFP expression control read;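 0 = vehicle wells; hits needed this value within 50% of zero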
# An asterisk follows results filed as active; i = inactive; ? = inconclusive; · = no result given; & = joins results of further samples; [ ] = remark or other dose.
SMILES,MT1-MMP act inh,MT1-MMP act inh RFP,HIV Env fusion,CSC inhib,eIF4H inh,Rce1 inh,UUG fidelity,PABP polyA inh,others
CCOC(=O)CSc1nc2c(sc(=S)n2-c2ccccc2OC)c(=O)n1-c1ccccc1OC,·,·,31,1,4,i,-6,12,
COc1ccc(CCC(C)NCCc2ccc(Cl)cc2Cl)cc1 (stereo unspecified),0,-1,55*,-7,6,i,-10,4,
CCc1nc2ccc(C(=O)N(CC)CCN(C)C)cn2c1N(C)C(=O)c1cccc(OC)c1,-4,5,-16,·,·,·,-16,·,
COc1ccc(N2CCN(C(=O)C3CCN(S(=O)(=O)c4ccc(F)cc4)CC3)CC2)cc1,3,-1,16,-1,-6,i,·,4,
COc1ccc(NS(=O)(=O)c2ccc(NC(=O)c3ccc(CN4CCOCC4)cc3)cc2)cc1,-5,-27,31,-8,-9,i,3,-3,
CCCCN(CC)C(=O)c1cc2cc3ccc(Cl)cc3nc2o1,0,0,-9,10,-4,i,·,-16,
O=C1NC(=O)C2(CCCC2C(=O)O)N1 (stereo unspecified),1,3,-4,·,·,·,-9,·,
CN1C(=S)SC(/[N+]([O-])=C\c2ccccc2)C1(C)C (stereo unspecified),-2,0,-48,-4,-1,i,-25,11,
Cc1cc(O)c(NC(=O)c2cc([N+](=O)[O-])ccc2Cl)cc1C,-9,-2,26,11,-5,i,-4,-2,
CS(=O)(=O)N(CCc1ccccc1)CC(=O)N1CCc2ccccc2C1,0,1,-17,-19,2,i,-1,5,
COc1ccc(N=C2SCC(c3ccc(C)cc3)=NN2CCO)cc1,-1,0,8,-3,1,i,·,-8,
O=C(Cn1c(C(F)(F)F)nc2ccccc21)Nc1ccccc1N1CCOCC1,1,4,·,-7,-4,i,·,2,
CCN(CC)S(=O)(=O)c1ccc(C)c(NC(=O)Cc2ccc(S(=O)(=O)N3CCOCC3)s2)c1,6,0,46,·,-11,i,-1,-9,
O=C(Cn1c(=O)c2ccccc2n(CC(=O)N2CCCCC2)c1=O)N1CCCCC1,2,-2,9,1,2,i,-14,17,
COC(=O)c1ccccc1NC(=O)CSc1nc2ccsc2c(=O)n1Cc1ccc(C(=O)O)cc1,2,0,10,·,·,·,1,·,
O=S(=O)(NCCSc1ccc(Cl)cc1)c1ccc(F)cc1,2,4,?,1,-6,i,-13,-3,
Cc1cccc(/C=C/C(=O)c2cc(Br)ccc(=O)c2O)c1,0,4,·,103*,38,i,-11,22,
CC(=O)c1ccc(N2CCN(C(=O)c3cc(-c4ccncc4)nc4ccc(Cl)cc34)CC2)cc1,2,-3,?,1,2,i,-20,-5,
COc1ccccc1C(=O)C1CCCN(C(=O)c2ccccc2C(C)=O)C1 (stereo unspecified),5,1,-18,·,8,i,-7,8,
Cc1cc(C(=O)C(C)Cl)c(C)n1Cc1ccco1 (stereo unspecified),-3,3,3,-15,101*,i,·,1.6*,eIF4H inh retest=91*;PABP polyA inh retest=52*
COc1ccc(NC(=O)CN2CCC(C(N)=O)(N3CCCCC3)CC2)c(OC)c1,-2,0,-1,-10,-10,i,·,2,
O=C(CCN1CCCCC1)N/N=C/c1ccc(Br)cc1,·,·,4,-7,0,i,·,-4,
CCCCCCCCCCCCS[C@H]1CS(=O)(=O)C[C@@H]1O,-2,-4,5,-7,3,i,-10,-7,
Cc1ccc(-n2cc(-c3ccccc3)c3c(N4CCOCC4)ncnc32)cc1,-18,-11,30,·,-2,i,·,-9,
CC(OC(=O)c1cc2sccc2n1C)C(=O)NCc1cccs1 (stereo unspecified),0,-11,21,-1,-5,i,-11,45,
COc1ccccc1-c1nc(COc2ccc(Cl)cc2Cl)no1,1,-2,-55,1,2,i,·,-10,
N=c1c(C(=O)NCCc2ccccc2)cc2c(=O)n3ccccc3nc2n1Cc1ccco1,-4,-6,9,54,93*,i,·,47,eIF4H inh retest=80*;PABP polyA inh retest=36
CCOC(=O)c1nn(-c2ccc(Cl)cc2)c2nnc(Cc3ccccc3)c(=O)n12,-1,0,-2,-25,5,i,·,-2,
O=C(NCC1OCCc2ccccc21)c1cc(COc2c(F)cccc2F)on1 (stereo unspecified),-1,-3,-18,-7,11,i,·,2,
Cc1nc(NC(=O)COC(=O)[C@@H](NC(=O)c2ccco2)C(C)C)c(Cl)cc1Cl,-4,0,·,-3,·,·,-6,·,
C[C@@H]1CCCCO[C@H](CN(C)C(=O)c2ccccc2)[C@@H](C)CN([C@H](C)CO)C(=O)c2cc(NC(=O)c3ccncc3)ccc2O1,2,5,-10&11[16.7 µM],·,·,·,-13&3,·,
O=C(Cn1cnc2cc([N+](=O)[O-])ccc2c1=O)Nc1ccc(N2CCOCC2)cc1,-7,3,0,0,-3,i,-34,7,
CC(C)NC(=O)COC(=O)c1ccccc1CSC1=NCCS1,-2,3,-1,-12,3,i,-8,-7,
CN1OC[C@@H]2CN(S(=O)(=O)c3cc(Cl)cc(Cl)c3)[C@H](c3ccc(-c4ccc(C#N)cc4)cc3)C[C@@H]21,-4,-4,-99,·,·,·,-12,·,
O=C1c2ccccc2CC1Sc1nnc(-c2ccccn2)o1 (stereo unspecified),5,8,-15,·,14,i,-10,7,
CCOP(=O)(OCC)c1cccc(P(=O)(c2ccccc2)c2ccccc2)c1O,-4,1,-4,-6,-9,i,3,4,
COC(=O)c1ccc(NC(=O)C2CCCN2C(=O)OCc2ccccc2)cc1 (stereo unspecified),-1,-5,-3,-12,-4,i,-6,2,
CCOCCCn1c(SCC(=O)NCc2ccc3c(c2)OCO3)nc2ccccc2c1=O,-1,-2,26,32,10,i,·,-2,
CCN(C(=O)COC(=O)c1ccccc1SCC(=O)N1CCCC1)C1CCS(=O)(=O)C1 (stereo unspecified),0,1,·,-14,·,i,9,·,
COC(=O)C(Cc1ccc(O)cc1)NC(=O)CCc1ccco1 (stereo unspecified),-2,2,0,-23,-2,i,-4,14,
CC(=O)Nc1ccc(NC(=O)CN(c2cc(Cl)ccc2Cl)S(C)(=O)=O)cc1,0,0,7,-14,2,i,·,-6,
COc1ccc(C(CNC(=O)CCNC(=O)c2ccccc2OC)N2CCCC2)cc1 (stereo unspecified),1,0,17,-1,·,i,·,·,
Cc1cccc2nc(COc3ccc(-c4ccccc4)cc3)cn12,·,·,·,52,-10,i,·,-3,
CN(Cc1nc2ccccc2c(=O)[nH]1)C(=O)C1CC(=O)N(c2cccc3ccccc23)C1 (stereo unspecified),-3,0,5,-7,·,·,1,·,
Cc1cc(C)nc(N2CCC(C(=O)NCCc3ccc(Cl)cc3)CC2)n1,1,-2,9,-4,8,i,-14,8,
CCOc1c(OC(C)=O)ccc(/C=C2\N=C(SCC)SC2=O)c1[N+](=O)[O-],-6,2,-109,-13,8,i,-8,6,
Cc1c([N+](=O)[O-])cc(S(=O)(=O)Nc2ccc(-c3ccc(N4CCCC4)nn3)cc2)cc1[N+](=O)[O-],1,-1,-2,42,·,i,2,·,
C/C(=N\N=C1\NC(=O)C(CC(=O)NCc2ccccc2)S1)C(C)C (stereo unspecified),-3,-1,-14,-19,-8,i,-11,2,
Cc1c(C(=O)O)[nH]c2c1C(=O)CC(c1ccc(C(C)(C)C)cc1)C2 (stereo unspecified),1,2,-10,-14,-2,i,-4,2,
COc1cc(C(=O)Nc2ccc3c(c2)OCO3)ccc1OCc1c(C)noc1C,0,-1,-4,-12,0,i,·,11,
Cc1cc(C(=O)CN2C(=O)C(=O)N(Cc3ccccc3)C2=O)c(C)n1CC1COc2ccccc2O1 (stereo unspecified),-6,-24,46,-5,4,i,·,7,
O=C(c1cc(-c2ccccc2O)on1)N1CCOCC1,-1,1,-13,0,-7,i,-16,7,
COC(=O)C1(C(C[N+](=O)[O-])c2ccco2)C(=O)NCC1c1ccccc1 (stereo unspecified),-1,-4,-5,-3,-3,i,-5,-4,
Nc1nc(CSc2nnc(-c3cccc(F)c3)n2-c2ccccc2)nc(N2CCOCC2)n1,0,0,3,3,5,i,·,3,
Cc1ccc(NC(=O)CN(C)C(=O)c2cc3ccccc3o2)cc1,0,0,-9,3,-2,i,·,26,
CC(=O)Nc1sc(C)c(C)c1C(=O)OCC(=O)Nc1ccc(S(N)(=O)=O)cc1,-2,4,-2,-9,·,·,-19,·,
COCCN(CCOC)C(=O)c1ccc(CSc2nc3ccccc3s2)cc1,5,-19,30,-10,-5,i,-3,2,
COc1cc(OC)c(/C=N/n2c(C)nnc2C)c(OC)c1,1,-3,15,0,-5,i,-5,-2,
Cc1ccc(C)c(CSCC(=O)NCc2cccs2)c1,-7,-7,4,-2,-8,·,·,3,
Cc1ccc(S(=O)(=O)CCC(=O)NC2CCCC2)cc1,0,3,11,-9,1,i,-19,-3,

# Looked up by compound from above, five records:
SMILES,MT1-MMP act inh,MT1-MMP act inh RFP,HIV Env fusion,CSC inhib,eIF4H inh,Rce1 inh,UUG fidelity,PABP polyA inh,others
CC(=O)Nc1sc(C)c(C)c1C(=O)OCC(=O)Nc1ccc(S(N)(=O)=O)cc1,-2,4,-2,-9,·,·,-19,·,
C/C(=N\N=C1\NC(=O)C(CC(=O)NCc2ccccc2)S1)C(C)C (stereo unspecified),-3,-1,-14,-19,-8,i,-11,2,
Cc1cc(C)nc(N2CCC(C(=O)NCCc3ccc(Cl)cc3)CC2)n1,1,-2,9,-4,8,i,-14,8,
Cc1cc(C(=O)CN2C(=O)C(=O)N(Cc3ccccc3)C2=O)c(C)n1CC1COc2ccccc2O1 (stereo unspecified),-6,-24,46,-5,4,i,·,7,
Cc1c(C(=O)O)[nH]c2c1C(=O)CC(c1ccc(C(C)(C)C)cc1)C2 (stereo unspecified),1,2,-10,-14,-2,i,-4,2,

# Carrying on.
SMILES,MT1-MMP act inh,MT1-MMP act inh RFP,HIV Env fusion,CSC inhib,eIF4H inh,Rce1 inh,UUG fidelity,PABP polyA inh,others
O=c1[nH]c(CSc2ncc(C(F)(F)F)cc2Cl)nc2cc(C(F)(F)F)ccc12,-25,1,14,-14,-12,i,0,-20,
O=C(Nc1ccccc1)Nc1snnc1C(=O)Nc1cccc(O)c1,9,-1,-10,·,45,i,·,0,
O=C(CN1CCCCCC1)N1c2ccccc2C=Cc2ccccc21,0,-1,-10,-13,6,i,-12,9,
CC(C)CCn1c(=O)c2ccccc2n2c(CN3CCCC3)nnc12,2,4,17,-14,1,i,-4,-9,
O=C(NC1CCCC1)C(c1ccncc1)N(C(=O)c1csnn1)c1ccc(F)c(Cl)c1 (stereo unspecified),2,-2,49,-2,-6,i,-7,7,
COc1cccc(N2CCN(S(=O)(=O)c3cccc4nsnc34)CC2)c1,1,0,4,-2,-3,i,·,-3,
Cc1cc(=O)nc2c3ccccc3n(C(C)C(=O)Nc3cc(F)ccc3F)n12 (stereo unspecified),0,4,-8,-12,5,i,·,-4,
O/N=C/c1cc(Cl)ccc1OCc1cccc2ccccc12,·,·,·,2,-1,i,·,-3,
COc1cccc(CNC(=O)c2cc(S(=O)(=O)N3CCOCC3)ccc2N2CCCC2)c1,3,-1,10,-10,·,·,11,·,
CC1(C(=O)NCCC(F)(F)F)Cc2c(-c3ccccc3)ccnc2O1 (stereo unspecified),-1,-7,-10,·,·,·,8,·,
COCCNC(=O)c1ccc(CS(=O)(=O)c2ccc(Cl)cc2)o1,3,5,·,·,-1,i,-10,25,
Cc1ccc(NC(=O)CCN2C(=O)c3ccccc3C2=O)c(C)c1,4,4,7,-2,-5,i,10,-13,
CC(C)(C)C(=O)Nc1nnc(CCc2ccccc2)s1,-1,4,-22,13,0,i,-9,5,
FC(F)(F)c1cc(-c2ccco2)nc(-n2cnc3ccccc32)n1,-6,2,-53,-10,18,i,-11,10,
